Screens from PubChem BioAssay.
MT1-MMP act inh – blockers of MT1-MMP proenzyme processing, primary screen, HT1080 RFP-PRO-GFP cells, GFP/RFP fluorescence. GFP/RFP ratio fluorescence, overnight; percent of plate control window, DMSO zero. GFP/RFP ratio change, % at 20 µM. 360,000 compounds, 0.061% hits;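 active = GFP/RFP ratio change of at least 30% with cell ATP level not reduced by more than half and red fluorescence within 50% of control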; note: strong numbers were not always called active
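Assay system – RFP-PRO-GFP reporter HT1080 cells · Compound dosing – single dose of 20 µM compound, 1% DMSO final · Incubation – overnight compound exposure at 37 °C · Measure – GFP/RFP fluorescence ratio · Benchmarks – DMSO wells and RFP-L50D-GFP cells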
UUG fidelity – modulators of yeast start codon fidelity, primary screen, whole organism, S. cerevisiae, single point, plate reader; 350,000 compounds, 0.13% hits; S. cerevisiae UUG-firefly luciferase reporter, luminescence/redox ratio; AID 602363, 2012; activity score, % at 18.7 µM;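 active = replicate mean at a twofold rise or more, about +100% in these data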;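 note: firefly luciferase made from a UUG start codon reports start codon fidelity; reporter light over untreated wells divided by growth signal over untreated wells; some hits fall short of that in this replicate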
CSC inhib – cancer stem cell viability inhibitors, primary screen, luminescence | 300,000 compounds, 1.1% hits | cancer stem cell-like cells viability | inhibition, % at 7.5 µM;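 active = mean at 75% or more and at least half the replicates too; tested in HMLE shEcad cells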;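 note: 0% = median of negative and 100% = median of positive control wells; the first replicate is given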
Env fusion inh – inhibitors of HIV-1 Env-driven cell-cell fusion, primary screen, HeLa-JRFL effector, CEM21 target cells, luciferase. 360,000 compounds, 1.1% hits. inhibition, % at 12.3 µM. AID 651610, 2012;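 active = mean replicate inhibition score of at least 50 and every replicate individually at or above 50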;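 note: 0% = plate neutral controls and 100% = maraviroc near 300 nM; one replicate is shown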
eIF4H FP inh – human eIF4H binding inhibitors, primary screen, translation initiation inhibitor project, biochemical, uHTS, fluorescence polarization; inhibition, % at 35 µM; eIF4H fluorescence polarization binding assay; Eukaryotic translation initiation factor 4H (Homo sapiens), Q15056; 290,000 compounds, 0.94% hits;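 active = 50% or more with normal probe brightness, or confirmed in later tests; about a fifth of its hits are not listed in these tables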;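 note: calls also rest on retests at 20 µM and on dose response follow-up; 0% = protein and probe with vehicle and 100% = probe without protein; strong numbers were not always called active; many hits fall short of the cut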
PABP polyA inh – PABP poly(A) RNA binding inhibitors, primary screen, biochemical, fluorescence polarization, uHTS; 290,000 compounds, 1% hits; inhibition, % at 35 µM; Polyadenylate-binding protein 1 (Homo sapiens), P11940;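 active = 50% or more with normal probe brightness, or confirmed in later tests; about a fifth of its hits are not listed in these tables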;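 note: calls also rest on retests at 20 µM and on dose response follow-up; controls were probe without protein and protein plus probe with vehicle; some compounds called inactive have numbers as strong as hits; many hits fall short of the cut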
Rce1 inhib – yeast Rce1p protease inhibitors, primary screen, biochemical, fluorescence, cell-free homogeneous; yeast membranes, quenched prenylated peptide cleavage fluorescence; calls only; 290,000 compounds, 0.27% hits; AID 2563, 2010;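 active = fall in fluorescence gain of 50% or more versus controls, with final raw signal at or below 3038400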;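 note: plate controls were neutral control wells for no effect and wells lacking membranes for full effect; tested at 10 µM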
Target sequence (Q03530 whole entry, looked up): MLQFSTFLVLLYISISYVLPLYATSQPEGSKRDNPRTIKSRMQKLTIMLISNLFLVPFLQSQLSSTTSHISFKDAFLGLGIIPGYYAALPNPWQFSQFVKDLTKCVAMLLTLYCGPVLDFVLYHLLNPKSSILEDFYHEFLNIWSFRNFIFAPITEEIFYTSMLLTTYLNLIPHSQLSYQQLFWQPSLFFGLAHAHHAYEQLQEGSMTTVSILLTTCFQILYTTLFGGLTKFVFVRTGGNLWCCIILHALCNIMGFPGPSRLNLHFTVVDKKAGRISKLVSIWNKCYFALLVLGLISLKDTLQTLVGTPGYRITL
eIF4H FP inh retest – recorded beside eIF4H FP inh, whose call it bears; inhibition, %; compound at 20 µM; confirmation average;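 mean of two retest wells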
PABP polyA inh retest – further read-out of PABP polyA inh, marked with its call; inhibition, %; compound at 20 µM; confirmation repeats;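 mean of two retest wells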
MT1-MMP act inh RFP – second read-out of MT1-MMP act inh, no call of its own (marks repeat the call); RFP signal change, %; measured here: RFP expression control read;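 0 = vehicle wells; hits needed this value within 50% of zero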
An asterisk follows results filed as active; i = inactive; nt = not tested or not shown; + = active, no number.

SMILES | MT1-MMP act inh | MT1-MMP act inh RFP | UUG fidelity | CSC inhib | Env fusion inh | eIF4H FP inh | PABP polyA inh | Rce1 inhib | others
CC(C)(O)C#Cc1ccc(CNC[C@H]2O[C@@H](n3cnc4c(=O)[nH]c(N)nc43)[C@H](O)[C@@H]2O)s1 | -2 | 2 | -21 | nt | -28 | nt | nt | nt
O=c1c(-c2ccccc2)c(O)c2ccccc2n1-c1ccccc1 | 4 | -4 | 25 | 13 | 5 | 2 | 7 | +
O=C(NC1CC2CCC(C1)N2C(=O)NCc1ccccc1)C1CC1 (stereo not given) | -3 | 1 | -11 | 1 | 3 | -2 | -2 | i
CNC(=O)c1cc2cc(OC)ccc2n1CCN(C)C | 3 | 4 | -5 | -2 | nt | -6 | -18 | i
CCCCC(=O)Nc1ccc(C(=O)OC2CCCCC2)cc1 | -2 | -7 | nt | 19 | nt | -7 | -9 | i
CC(C)CNS(=O)(=O)c1ccc(CCC(=O)NCc2cccnc2)cc1 | -7 | -4 | -4 | -7 | -59 | -7 | 0 | i
Cc1c(C(=O)N2CC(C)OC(C)C2)oc2ccccc12 (stereo not given) | 0 | 3 | -18 | 2 | -3 | 8 | 7 | i
Cc1ccc(C)c(S(=O)(=O)N2CCN(C(C)C(=O)Nc3ccccc3-c3ccccc3)CC2)c1 (stereo not given) | -16 | -16 | nt | 64 | 34 | -5 | -2 | i
C=CC[C@H](CC(=O)N(CCO)Cc1ccccc1)C(=O)NCCOC(=O)[C@@H](CC=C)CC(=O)OC(C)(C)C | 1 | 2 | 19 | 4 | 1 | nt | nt | nt
CCOc1cc(/C=C2\CCC/C(=C\c3cc(Cl)c(O)c(OCC)c3)C2=O)cc(Cl)c1O | -9 | -2 | -10 | -9 | nt | 0 | 4 | i
NC(=O)NC(Cc1ccccc1)C(=O)O (stereo not given) | -1 | 3 | 8 | 8 | -12 | 4 | -9 | i
Cc1ccc(C)c(N2CCN(C(c3ccncc3)c3nnnn3Cc3ccccc3)CC2)c1 (stereo not given) | 3 | 5 | 1 | -7 | nt | -2 | 26 | i
COc1ccc(C(=O)NCCN2CCOCC2)c(OC)c1 | -2 | 2 | nt | -8 | 4 | 1 | 44 | i
C=CCNC(=O)CN(c1cccc(Br)c1)S(C)(=O)=O | -2 | 6 | -6 | -1 | -8 | -13 | -2 | i
CCCCN(C(=O)C(C)Oc1cccc(Cl)c1)c1c(N)n(CCC)c(=O)[nH]c1=O (stereo not given) | 3 | 2 | -4 | -9 | nt | nt | nt | i
O=C(Nc1nnc(S(=O)(=O)N2CCCCCC2)s1)c1cccc(Br)c1 | 15 | -31 | -27 | 29 | 1 | -8 | 0 | i
Cc1cccc(C)c1NC(=O)CSc1nnc(C)c(=O)[nH]1 | 2 | 0 | nt | nt | -8 | 4 | -5 | i
COc1cc(OC)cc(-c2sc3ccc(OC)cc3c2C#CCO)c1 | 3 | 0 | 41 | 102* | -30 | nt | nt | nt
COc1ccc2c(c1OC)C(=O)OC2C/C(=N\NC(N)=O)c1ccccc1 (stereo not given) | 4 | 7 | nt | -14 | -14 | -6 | 7 | i
CCn1c(O)c(/C=N/N=C2CCCC2)c2ccc(C3=NNC(=O)CC3)cc21 | -8 | 3 | -16 | 0 | 13 | -7 | -7 | i
COc1cc(OC)cc(C(=O)Nc2cccc(C(C)=O)c2)c1 | 3 | 2 | -13 | -14 | -58 | 0 | 4 | i
CC(NS(=O)(=O)c1ccc(Cl)cc1)C(=O)NCc1ccco1 (stereo not given) | 5 | -2 | -14 | -24 | nt | 64 | 13 | i | eIF4H FP inh retest=5;PABP polyA inh retest=9
O=C(NCCCn1ccnc1)c1cccc(Br)c1 | 4 | 6 | -10 | -2 | 9 | 1 | -1 | i
CCN1CCN(C(=O)c2ccc(CSc3ccc(C)cc3)cc2)CC1 | 5 | -6 | -15 | 155* | 22 | -6 | -4 | i
COc1cccc(C2CC(=O)NC(SC)=C2C#N)c1 (stereo not given) | -1 | 2 | -9 | -11 | -12 | 5 | 0 | i

Entries from the list above with an aryl methoxy group:
SMILES | MT1-MMP act inh | MT1-MMP act inh RFP | UUG fidelity | CSC inhib | Env fusion inh | eIF4H FP inh | PABP polyA inh | Rce1 inhib | others
CNC(=O)c1cc2cc(OC)ccc2n1CCN(C)C | 3 | 4 | -5 | -2 | nt | -6 | -18 | i
COc1ccc(C(=O)NCCN2CCOCC2)c(OC)c1 | -2 | 2 | nt | -8 | 4 | 1 | 44 | i
COc1cc(OC)cc(-c2sc3ccc(OC)cc3c2C#CCO)c1 | 3 | 0 | 41 | 102* | -30 | nt | nt | nt
COc1ccc2c(c1OC)C(=O)OC2C/C(=N\NC(N)=O)c1ccccc1 (stereo not given) | 4 | 7 | nt | -14 | -14 | -6 | 7 | i
COc1cc(OC)cc(C(=O)Nc2cccc(C(C)=O)c2)c1 | 3 | 2 | -13 | -14 | -58 | 0 | 4 | i
COc1cccc(C2CC(=O)NC(SC)=C2C#N)c1 (stereo not given) | -1 | 2 | -9 | -11 | -12 | 5 | 0 | i

The results go on.
SMILES | MT1-MMP act inh | MT1-MMP act inh RFP | UUG fidelity | CSC inhib | Env fusion inh | eIF4H FP inh | PABP polyA inh | Rce1 inhib | others
Cc1cc(C)n2cc(CSc3nnnn3C)nc2n1 | -1 | 5 | -26 | -6 | nt | 11 | 8 | i
CCOc1cc(CNc2ccc(CNc3ncn[nH]3)cc2)ccc1OCc1ccccc1 | -4 | -6 | -13 | 0 | 8 | 17 | 3 | i
O=C(CSc1ccc(C(F)(F)F)cc1[N+](=O)[O-])NCCOc1ccccc1 | 0 | 2 | nt | 11 | 15 | 11 | -4 | i
Cc1[nH]c2ccccc2c1C1(O)C(=O)N(C(C)C)c2ccccc21 (stereo not given) | -4 | 4 | -13 | 0 | 0 | -4 | 12 | i
O=C(Nc1ccc(O)cc1)c1ccc2c(c1)C(=O)N(Cc1ccccc1)C2=O | -4 | -2 | -8 | 2 | -40 | -1 | 8 | i
COc1ccc(NC(=O)C2Cc3cccc(OC)c3O/C2=N\O)cc1 (stereo not given) | 3 | -1 | -1 | -3 | -2 | 13 | 0 | i
Cc1ccc(NCCC(=O)c2ccc(Cl)c(Cl)c2)cc1 | 2 | 1 | -17 | -7 | -4 | 4 | -6 | i
Cc1ccccc1-n1c(SCC(N)=O)nc2sc(-c3ccccc3)cc2c1=O | -4 | -6 | -16 | 10 | nt | 4 | -3 | i

Five entries out of the list, sorted by count of non-hydrogen atoms, rising.
SMILES | MT1-MMP act inh | MT1-MMP act inh RFP | UUG fidelity | CSC inhib | Env fusion inh | eIF4H FP inh | PABP polyA inh | Rce1 inhib | others
Cc1cc(C)n2cc(CSc3nnnn3C)nc2n1 | -1 | 5 | -26 | -6 | nt | 11 | 8 | i
Cc1ccc(NCCC(=O)c2ccc(Cl)c(Cl)c2)cc1 | 2 | 1 | -17 | -7 | -4 | 4 | -6 | i
COc1ccc(NC(=O)C2Cc3cccc(OC)c3O/C2=N\O)cc1 (stereo not given) | 3 | -1 | -1 | -3 | -2 | 13 | 0 | i
O=C(CSc1ccc(C(F)(F)F)cc1[N+](=O)[O-])NCCOc1ccccc1 | 0 | 2 | nt | 11 | 15 | 11 | -4 | i
O=C(Nc1ccc(O)cc1)c1ccc2c(c1)C(=O)N(Cc1ccccc1)C2=O | -4 | -2 | -8 | 2 | -40 | -1 | 8 | i

The list is partial, so the mix of outcomes need not match the whole.
